MT1-MMP act inh – MT1-MMP (human) activation inhibition. P50281. GFP/RFP ratio change, % at 20 µM. 0.061% of 360,000 active. HT1080 RFP-PRO-GFP cells, GFP/RFP ratio fluorescence, overnight; percent of plate control window, DMSO zero;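 active means GFP/RFP ratio change of at least 30% with cell ATP level not reduced by more than half and red fluorescence within 50% of control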; further: strong numbers were not always called active
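Test system: HT1080 RFP-PRO-GFP cells; Benchmarks: DMSO and RFP-L50D-GFP cell wells; Timing: cells overnight before dosing, compound overnight, 37 °C, 5% CO2; Compound: one 20 µM compound dose with 1% DMSO; Read-out: GFP/RFP fluorescence ratio.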
CSC inhib – blocks cancer stem cells; cancer stem cell-like cells viability, luminescence; inhibition, % at 7.5 µM; 1.1% of 300,000 active;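 active means mean at 75% or more and at least half the replicates too; inconclusive means mean and replicates disagree; tested in HMLE shEcad cells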;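 further: 0% = median of negative and 100% = median of positive control wells; the first replicate is given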
Env fusion inh – inhibitors of HIV Env-mediated cell fusion. HeLa-JRFL Env/CEM21 cell fusion, luciferase. inhibition, % at 12.3 µM. 1.1% of 360,000 active;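 active means mean replicate inhibition score of at least 50 and every replicate individually at or above 50; inconclusive means only one of the two criteria met; inactive means mean below 50 and not all replicates reaching 50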;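 further: 0% = plate neutral controls and 100% = maraviroc near 300 nM; one replicate is shown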
eIF4H FP inh – inhibitors of RNA binding by human eIF4H. Q15056. eIF4H fluorescence polarization binding assay. inhibition, % at 35 µM. 0.94% of 290,000 active. AID 2012;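 active means 50% or more with normal probe brightness, or confirmed in later tests; inconclusive means above 50% with abnormal brightness, or retests that disagree; inactive means below 50% or failed in later tests; about a fifth of its hits are not listed in these tables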;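 further: calls also rest on retests at 20 µM and on dose response follow-up; 0% = protein and probe with vehicle and 100% = probe without protein; strong numbers were not always called active; many hits fall short of the cut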
Rce1 inh – inhibitors of yeast Ras-converting enzyme. calls only. yeast membranes, quenched prenylated peptide cleavage fluorescence. 0.27% of 290,000 active;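 active means fall in fluorescence gain of 50% or more versus controls, with final raw signal at or below 3038400; inconclusive means same 50% fall but final raw signal above 3038400; inactive means fall in fluorescence gain under 50%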;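 further: plate controls were neutral control wells for no effect and wells lacking membranes for full effect; tested at 10 µM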
Target sequence (Q03530 whole entry, looked up): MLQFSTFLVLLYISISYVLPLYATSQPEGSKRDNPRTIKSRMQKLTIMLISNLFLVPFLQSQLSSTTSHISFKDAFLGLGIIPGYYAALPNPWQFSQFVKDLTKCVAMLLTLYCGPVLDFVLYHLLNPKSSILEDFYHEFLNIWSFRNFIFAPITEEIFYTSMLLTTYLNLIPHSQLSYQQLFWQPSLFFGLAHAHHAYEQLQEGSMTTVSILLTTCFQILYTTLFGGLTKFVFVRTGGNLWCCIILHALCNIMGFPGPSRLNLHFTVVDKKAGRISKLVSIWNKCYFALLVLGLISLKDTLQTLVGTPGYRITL
PABP FP inh – PABP-poly(A) binding inhibition; P11940; PABP-poly(A) RNA binding, fluorescence polarization; inhibition, % at 35 µM; 1% of 290,000 active;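 active means 50% or more with normal probe brightness, or confirmed in later tests; inconclusive means above 50% with abnormal brightness, or retests that disagree; inactive means below 50% or failed in later tests; about a fifth of its hits are not listed in these tables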;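 further: calls also rest on retests at 20 µM and on dose response follow-up; controls were probe without protein and protein plus probe with vehicle; some compounds called inactive have numbers as strong as hits; many hits fall short of the cut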
Yeast UUG start – alters start codon recognition fidelity in yeast | S. cerevisiae UUG-firefly luciferase reporter, luminescence/redox ratio | activity score, % at 18.7 µM | AID 602363 | 0.13% of 350,000 active;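 active means replicate mean at a twofold rise or more, about +100% in these data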;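 further: firefly luciferase made from a UUG start codon reports start codon fidelity; reporter light over untreated wells divided by growth signal over untreated wells; some hits fall short of that in this replicate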
eIF4H FP inh retest – recorded beside eIF4H FP inh, whose call it bears; inhibition, %; compound at 20 µM; confirmation average;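 mean of two retest wells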
PABP FP inh retest – further read-out of PABP FP inh, marked with its call; inhibition, %; compound at 20 µM; confirmation repeats;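 mean of two retest wells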
MT1-MMP act inh RFP – recorded beside MT1-MMP act inh, whose call it bears; RFP signal change, %; measured here: RFP expression control read;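 0 = vehicle wells; hits needed this value within 50% of zero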
* hit, by the source's call; i = inactive; ? = inconclusive; nt = no result given; & = joins results of further samples; [ ] = dose if it differs, or a comment.

SMILES	MT1-MMP act inh	MT1-MMP act inh RFP	CSC inhib	Env fusion inh	eIF4H FP inh	Rce1 inh	PABP FP inh	Yeast UUG start	others
COc1ccc(C(CC(=O)Nc2ncccc2C)N2Cc3ccccc3C2=O)cc1OC (centres undefined)	1	3	-4	1	5	i	5	-14
O=C(CCCn1c(=O)c2ccccc2n(CC(=O)N2CCN(c3ccccc3)CC2)c1=O)NCc1ccco1	-2	1	14	17	-5	i	3	-13
COc1ccccc1NC(=S)NCC1CCCO1 (centres undefined)	0	3	-4	5	-1	nt	64	-32	eIF4H FP inh retest=-3;PABP FP inh retest=-1
CS(=O)(=O)N(CC(=O)NCCSCc1ccccc1)c1ccc2c(c1)OCO2	-4	-5	16	22	-4	i	7	nt
COc1ccc(C)cc1NCc1ccc([N+](=O)[O-])cc1	-2	1	11	3	-18	i	-9	-8
CCCCOc1ccc(C(=O)NCCCC(=O)N2CCCCC2)cc1	5	5	-4	7	-4	i	-5	-12
Cc1ccc(C)c(OCc2cc(C(=O)NC(C)c3cnn(C)c3)no2)c1 (centres undefined)	-4	1	-14	12	-2	i	6	-12
CC(C)NS(=O)(=O)c1ccc(OCC(N)=O)c(Cl)c1	3	5	-6	nt	-17	i	-5	-7
Cc1cc(NCCNC2=CC(=O)CCC2)nc2ccccc12	5	3	-9	nt	-3	i	3	7
Cc1ccc(OCc2nc(C#N)c(NCc3ccc4c(c3)OCO4)o2)cc1	2	-2	-4	-22	-2	i	13	-31
CCC(=O)NC(C)c1nc2ccccc2n1C (centres undefined)	1	0	-4	-55	-2	i	-5	-5
CCCn1c(N)c(N(CCOC)C(=O)CSc2cc(C)c3cccc(C)c3n2)c(=O)[nH]c1=O	3	2	nt	8	nt	nt	nt	7
C=CCc1c(C)nc2c(C(=O)O)cnn2c1C	-1	0	4	nt	-3	i	0	nt
CSc1cccc(NS(=O)(=O)c2cccs2)c1	-1	1	3	-32	-2	i	10	1
Cc1cc(N)n2nc(-c3ccccc3)c(-c3ccccc3)c2n1	-1	-5	8	nt	1	i	-11	-7
COc1ccc(S(=O)(=O)N2CCN(c3nc(C)cc(C)n3)CC2)cc1	5	3	-5	-1	-5	i	9	5
COc1ccccc1CCC(=O)OCC(=O)Nc1cccc(S(=O)(=O)N2CCOCC2)c1	-1	3	-11	-5	nt	i	nt	-13
Cc1ccc(C)c(S(=O)(=O)N2CCCOC2CNC(=O)C(=O)NCc2ccccn2)c1 (centres undefined)	-7	0	-1	7	7	i	1	-27
CC(c1nnc(SCC(=O)N(C)C2CCS(=O)(=O)C2)n1-c1ccccc1)N(C)C (centres undefined)	-2	-2	-10	8	nt	nt	nt	-14
O=C(NCc1ccc(F)cc1)Nc1nnc([C@H]2C[C@H](O)[C@@H](CO)O2)s1	-2	5	nt	13	nt	nt	nt	-9
O=C(c1ccc(CS(=O)(=O)Cc2ccccc2)cc1)N1CCCCC1	2	-2	-7	8	-3	i	2	3
COC(=O)C1=NN(C(=O)c2cccc(Br)c2)C(O)(c2ccc(Cl)cc2)C1 (centres undefined)	-54	4	12	4	58*	i	1	1	eIF4H FP inh retest=73*;PABP FP inh retest=44
NS(=O)(=O)c1ccc2nc(NC(=O)C3CCCO3)sc2c1 (centres undefined)	2	1	-3	1	5	i	3	nt
COc1ccc(C(=O)NCC(c2ccc3c(c2)OCO3)N2CCN(c3ccc(OC)cc3)CC2)cc1 (centres undefined)	3	-10	12	24	nt	i	nt	7
COc1ccccc1-c1nnc(SCC(=O)NCc2ccco2)n1N	1	2	-2	-21	13	i	-4	nt
COc1ccc(CNC(=O)CCC(=O)Nc2nnc(CC(C)C)s2)cc1	1	1	-12	17	-2	i	2	8
O=C(NCCCN1CCOCC1)c1ccc2c(c1)N(Cc1cccc(F)c1)C(=O)c1ccccc1S2	-5	-1	15	-60	0	i	-6	3
CCOc1ccccc1NC1=C(Cl)C(=O)N(c2ccccc2)C1=O	2	6	-12	-10	0	i	-9	nt
CC(C)OC(=O)/C(C#N)=C/c1cn(Cc2ccccc2)c2ccccc12	-6	-5	47	-2	-5	i	-8	nt
Cc1cc(Cl)ccc1OCC(=O)NCCOc1nc(N2CCOCC2)nc(N2CCOCC2)n1	-1	8	-3	94*	-1	i	-4	-5
O=C(Oc1ccccc1C(=S)N1CCOCC1)c1cccc([N+](=O)[O-])c1	-1	3	2	1	-7	i	8	-35
C#CCOCCOCCOCCNc1nc(N2CCN(C(=O)[C@H](C)n3cc(CCCN=C(N)N)nn3)CC2)nc(N2CCN(C(=O)[C@H](Cc3ccc(O)cc3)n3cc(CCO)nn3)CC2)n1	nt	nt	-4	nt	5	i	7	nt
Cc1sc2ncn(CC(=O)NCc3ccccn3)c(=O)c2c1S(=O)(=O)N1CCOCC1	-2	0	-11	-40	4	i	-11	nt
COc1cc(/C=C/c2ccc3c([N+](=O)[O-])cccc3n2)ccc1OCC(=O)O	-3	0	6	-85	-2	i	25	-10
O=C(NCc1ccccc1CN1CCCC1)c1ccc(S(=O)(=O)Nc2ccccc2)cc1	-9	-3	nt	3	nt	nt	nt	-3
COC(=O)CSc1nnc2n1C(C)(C)Cc1ccccc1-2	3	4	-13	-84	4	nt	1	-10
CCC(C)NC(=O)C1CCN(S(=O)(=O)N2CCC3(CC2)OCCO3)CC1 (centres undefined)	0	3	-2	0	0	i	12	nt
Cc1cccc(C(=O)OCC(=O)NC(=O)NC2CCCCC2)c1	3	2	nt	-15	nt	nt	nt	7
COc1cc(C(=O)NCc2cn3ccsc3n2)cc(OC)c1OC	2	6	nt	-28	nt	i	nt	-6
CCCc1ccc2oc(C(=O)N3CCC(N4CCCC(O)C4)CC3)c(C)c2c1 (centres undefined)	3	-1	48	-8	nt	i	nt	-13
COc1cccc(CN2CCNC(=O)C2CC(=O)NC2Cc3ccccc3C2)c1 (centres undefined)	1	5	nt	-11	10	i	-2	nt
COC(=O)c1cccc(NC(=O)CSc2nnc(-c3ccco3)o2)c1	0	4	-11	-8	6	i	9	-5
CC(=O)Nc1ccc(S(=O)(=O)Oc2ccc(C=O)cc2)cc1	-3	-1	11	-8	-5	i	-5	0
CN(C)c1cc[n+](/C(C(=S)Nc2ccc(SC(F)F)cc2)=C(/[O-])c2ccccc2)cc1	1	-15	3	6	-5	i	-5	-3
FC(F)(F)c1cc(NC2CCCCC2)ccn1	-10	-10	-13	5	3	i	-4	-1
C[C@H](CO)N1C[C@H](C)[C@@H](CN(C)C(=O)Nc2ccc(C(F)(F)F)cc2)Oc2ccc(NS(=O)(=O)c3cn(C)cn3)cc2C1=O	3	5	-2	17[16.7 µM]	nt	nt	nt	-18&-3
CC(C)c1ccc(C2(C)NC(=O)N(CC(=O)NCC3COc4ccccc4O3)C2=O)cc1 (centres undefined)	0	-6	3	nt	nt	nt	nt	17
COc1ccc(NC(=O)c2ccc(-c3ccc(C)c4ccccc34)o2)cc1	2	5	42	-6	2	i	6	4
CC1(C)Oc2ccc(C(=O)NN)cc2NC1=O	-1	3	nt	2	-5	i	-10	nt
CC1CCN(C(=O)CSc2ccc(-c3ccccc3)nn2)CC1	4	0	-6	0	-1	i	8	nt
COC(=O)c1cccc(NC(=O)/C(=C\c2ccccc2)NC(=O)c2ccccc2Cl)c1	1	0	-25	nt	-4	i	1	-16
O=C(NC1CCCN(C2Cc3ccccc3C2)C1)c1ccc(F)cc1Cl (centres undefined)	-2	1	-12	7	-6	i	-3	-5
CCc1c(O)nc(SCC(=O)Nc2ccccc2OC)n(-c2ccccc2C)c1=O	-4	1	-1	-6	nt	i	nt	2
COc1cccc(C(=O)NC(=S)Nc2ccc(Cl)cc2C(=O)O)c1	1	6	-4	-13	8	i	8	-22
CCCCN(C)C(=O)C(Cc1ccccc1)NS(=O)(=O)c1ccc2c(c1)CCC(=O)N2 (centres undefined)	-5	2	-24	67*	-4	i	-8	-17
CC(C)C[C@H](NC(=O)C1CC(=O)N(c2ccc3c(c2)OCCO3)C1)C(=O)N1CCCCC1 (some centres undefined)	-1	1	-10	-7	-20	i	7	-8
CCOC(=O)CSc1nnc([C@H](CC(C)C)NC(=O)OC(C)(C)C)o1	0	5	nt	nt	-3	i	4	5
CSCCC(C(=O)N1C[C@]2(C)C[C@H]1CC(C)(C)C2)N1C(=O)c2ccccc2C1=O (some centres undefined)	-1	0	-6	?	8	i	8	-8
Cc1ccc(CN2CC(N3CCN(Cc4cccc(C)c4)CC3)CS2(=O)=O)cc1 (centres undefined)	9	1	nt	-10	nt	nt	nt	14
Nn1c(SCc2ccccc2)nc2c(cnn2-c2ccccc2)c1=O	-4	-5	nt	-36	2	i	0	nt

Remaining list, next part:
SMILES	MT1-MMP act inh	MT1-MMP act inh RFP	CSC inhib	Env fusion inh	eIF4H FP inh	Rce1 inh	PABP FP inh	Yeast UUG start	others
Cn1ccc2c(-c3cccnc3)cc3c(c21)C1CCC3C1 (centres undefined)	-3	-1	nt	26	nt	nt	nt	-13
CCOc1ccc(-c2cc(C(=O)NN=C3CCN(C)CC3)[nH]n2)cc1	-1	4	-1	-10	-2	i	-4	nt
CCCCCCCCCCCCN1[C@@H](CC(=O)OC)c2cc(F)cc(F)c2S1(=O)=O	0	-5	30	12	nt	i	nt	-22
NS(=O)(=O)c1ccc(NNC(=O)c2ccc(F)cc2F)cc1	2	3	-10	-1	-2	i	17	-5
CCOC(=O)c1c[nH]c2c(Cl)ccc(Cl)c2c1=O	1	2	23	nt	3	i	6	-3
CO/N=C(\c1nonc1N)N1CCN(c2ccc([N+](=O)[O-])cc2Cl)CC1	4	-4	12	-10	-1	i	10	-10
O=C(NCc1ccccc1)c1ccc2nc(-c3ccco3)c(-c3ccco3)nc2c1	-4	4	8	-124	108*	i	83*	-9
CCCCN(C(=O)c1cc2c(s1)CCC2)c1c(N)n(CCCC)c(=O)[nH]c1=O	-3	0	-9	13	nt	i	nt	4
On1nnc2ccc3ccccc3c21	-1	4	-9	nt	-10	i	0	-7
CC(C)c1[nH]nc2c1C(c1cccs1)C(C#N)=C(N)O2 (centres undefined)	-5	-1	-4	22	3	i	9	-32
Clc1ccc(-c2nnc3n2CCCC3)cc1	5	6	1	-17	9	i	-5	-17
COc1cccc(CC(=O)OC(C)C(=O)NCc2ccc3c(c2)OCO3)c1 (centres undefined)	6	3	-3	-14	nt	i	nt	nt
N#CC(C(=O)NC1CC1)c1nc2ccccc2nc1N1CCN(C/C=C/c2ccccc2)CC1 (centres undefined)	-11	1	24	nt	5	i	28	-19
COc1ccc(Cc2nc3ccc(C(=O)NCCSC)cc3o2)cc1	-1	0	7	-10	nt	i	nt	-5
CCc1ccc2[nH]c(=O)c(C(c3nnnn3Cc3ccc(OC)cc3)N3CCOCC3)cc2c1 (centres undefined)	-7	0	nt	78*	-3	i	0	3
CN(C)CCNCCCOc1ccccc1-c1ccccc1	nt	nt	13	nt	-3	i	-4	nt
COCCCn1c(=S)[nH]c2ccc(N3CCOCC3)cc2c1=O	0	2	11	-18	-8	i	3	-16
Cc1cc(-c2ccc(Cl)cc2Cl)c(C#N)c(=O)[nH]1	-1	-4	-6	-7	8	i	10	-17

Gathered by group, those above with a CF3 group
SMILES	MT1-MMP act inh	MT1-MMP act inh RFP	CSC inhib	Env fusion inh	eIF4H FP inh	Rce1 inh	PABP FP inh	Yeast UUG start	others
FC(F)(F)c1cc(NC2CCCCC2)ccn1	-10	-10	-13	5	3	i	-4	-1
C[C@H](CO)N1C[C@H](C)[C@@H](CN(C)C(=O)Nc2ccc(C(F)(F)F)cc2)Oc2ccc(NS(=O)(=O)c3cn(C)cn3)cc2C1=O	3	5	-2	17[16.7 µM]	nt	nt	nt	-18&-3

Not all compounds are listed; rates above refer to the full screens.
